# Six1-Eya2 blk: blocks human Six1 binding to Eya2; Q15475+O00167; AlphaScreen GST-Six1/His-Eya2 binding, biochemical; active compounds read low; control for the full effect not named in the record; activity change, % (no concentration beside the values); hit rate 0.56% among 360,000; in the data active = activity change below about -65%; inconclusive = about -30% to -65%; inactive = above about -30%; note: % is set by controls: 0 for no effect and ±100 for the full control effect
# Target sequence (O00167 whole entry, looked up): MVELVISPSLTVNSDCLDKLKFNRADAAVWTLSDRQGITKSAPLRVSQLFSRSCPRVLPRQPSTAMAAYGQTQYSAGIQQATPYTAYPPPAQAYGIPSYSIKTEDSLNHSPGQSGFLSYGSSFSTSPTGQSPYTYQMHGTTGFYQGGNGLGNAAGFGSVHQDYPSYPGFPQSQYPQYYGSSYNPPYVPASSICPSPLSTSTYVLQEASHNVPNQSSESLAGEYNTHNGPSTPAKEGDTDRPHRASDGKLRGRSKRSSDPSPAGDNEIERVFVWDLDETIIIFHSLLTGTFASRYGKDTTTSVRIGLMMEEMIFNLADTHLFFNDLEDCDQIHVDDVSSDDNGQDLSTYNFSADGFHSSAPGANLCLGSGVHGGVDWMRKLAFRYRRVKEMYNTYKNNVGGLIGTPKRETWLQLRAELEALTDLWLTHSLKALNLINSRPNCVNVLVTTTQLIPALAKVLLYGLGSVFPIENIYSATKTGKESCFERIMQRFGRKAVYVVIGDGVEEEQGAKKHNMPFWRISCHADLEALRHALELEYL
# Target sequence (Q15475 whole entry, looked up): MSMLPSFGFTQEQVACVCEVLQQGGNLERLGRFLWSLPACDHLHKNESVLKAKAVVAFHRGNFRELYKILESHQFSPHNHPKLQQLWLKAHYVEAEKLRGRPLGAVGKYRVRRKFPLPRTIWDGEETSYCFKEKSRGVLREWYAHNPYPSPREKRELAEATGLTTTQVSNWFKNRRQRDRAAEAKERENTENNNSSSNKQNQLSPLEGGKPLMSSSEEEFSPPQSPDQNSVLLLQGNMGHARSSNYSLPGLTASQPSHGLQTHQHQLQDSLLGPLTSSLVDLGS
#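 GST-Six1 + His-Eya2 (5X stock: 250/500 nM); Tris pH 8.0, 300 mM NaCl, 0.05% BSA, 0.02% Tween 20; GSH donor/Ni acceptor beads; 1 h 37 °C dark; AlphaScreen readout.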
# CtBP-E1A blk: CtBP/E1A binding inhibition; activity change, % (concentration not given with the values); hit rate 0.49% among 340,000; AID 651724; AlphaScreen GST-E1A/His-CtBP binding, 1536-well; active compounds read low; control for the full effect not named in the record; in the data active means activity change below about -65%; inconclusive means about -30% to -65%; inactive means above about -30%; note: % is set by controls: 0 for no effect and ±100 for the full control effect
#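 Steps: dispense buffer (Tris pH 8.0, NaCl 300 mM, TCEP 1 mM, BSA, Tween 20); add 5X protein mix (GST-E1A, His-CtBP, 125 nM each); pin 23 nL compound; 2 h at 37 °C, dark; add 5X beads (50 ug/mL); 1 h; read.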
# D2 agonist: human D2 receptor agonism in beta-arrestin assay. DiscoveRx PathHunter D2 beta-arrestin, luminescence, 90 min; 100% = 57 uM dopamine signal. P14416. AID 624465. hit rate 0.084% among 360,000. activation, % (test concentration not listed); in the data active = activation above about 40%; inconclusive = about 15% to 40%; inactive = below about 15%; note: compound concentration not given in the record; the text of the record calls up to 30% inactive
#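 Agonist mode: compounds alone added to overnight-plated D2 PathHunter cells for 90 min at 37 C, with 57 uM final dopamine (EC100) defining full response. Beta-arrestin recruitment detected by chemiluminescent reagent, read after 1 h at ambient temperature.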
# TRPML1 blocker: blocks the human TRPML1 channel; Q9GZU1; activity change, negative = inhibition, % (no concentration beside the values); hit rate 0.02% among 390,000; TRPML1-inducible cells, Ca2+ dye fluorescence, FDSS; active compounds read low; inhibition of EC80 agonist-evoked calcium signal; in the data active means activity change below about -50%; inconclusive means about -30% to -50%; inactive means above about -30%;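 note: stimulus is agonist 54-4 at its EC80 concentration; % is set by controls: 0 for no effect and ±100 for the full control effect; compound concentration not given in the record; the text of the record puts the active cut at -80%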
#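 TRPML1-DL cells, Tet-induced overnight (~16 h, 37 °C) at 1,500 cells/well, were loaded with Ca8 no-wash dye plus quencher for 45-90 min at room temperature. Compounds were pinned during FDSS kinetic reading; agonist 54-4 at EC80 (4 uM final) then added.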
# PINK1 modulator: PINK1 expression modulation | PINK1 immunofluorescence, high-content cytometry, 24 h | Potency, µM (titrated, usually from 76.6 µM), without a hit: top-dose activation (PINK1 increase), most hits filed as activators | hit rate 0.2% among 410,000 | AID 624263; active = well fitted activation curve with a large enough effect; inconclusive = small, poorly fitted or top-dose-only effect; inactive = flat fitted curve, though single readings scatter; cell line not stated here;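 note: potency is the fitted concentration of half-maximal effect; % of control where 0% means no effect; nearly all actives have a fitted effect of over 65% in size; a mitochondrial uncoupler was the plate control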
#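 Stable cell line treated 24 h with compounds at 5 concentrations (CCCP controls), then fixed and immunostained for PINK1 plus nuclear and cell stains; PINK1 immunofluorescence quantified by laser-scanning microplate cytometry.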
# TRPML1 ag: human mucolipin-1 channel agonism; Q9GZU1; TRPML1-expressing cells, Ca2+ dye fluorescence, FDSS; host cell line not named in the record; reference of the full effect not given here; hit rate 0.12% among 410,000; activation, % (no concentration beside the values); in the data active = activation above about 50%; inconclusive = about 30% to 50%; inactive = below about 30%; note: 0% is about no effect; the text of the record puts the active cut at 80%
#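 Kinetic FDSS Ca2+ read in Tet-induced TRPML1-DL cells (ABD Ca8 dye plus quencher, 45-90 min RT loading): baseline, then compound, then 110 s agonist window; EC80 agonist 54-4 at 4uM final added afterwards for a 110 s antagonist window.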
# * hit, by the source's call; ? = inconclusive; . = not tested or not shown; [ ] = dose if it differs, or a comment. No enrichment for hits. About 1% of those tested had a hit in this group.
SMILES,Six1-Eya2 blk,CtBP-E1A blk,D2 agonist,TRPML1 blocker,PINK1 modulator,TRPML1 ag
O=C(CN1CCC(C(=O)c2ccc3c(c2)OCCO3)CC1)Nc1ccccc1F,15,0,4.9,-19,-1.1%,1.2
COc1cccc(C(C(=O)NC2CCCC2)N(C(=O)c2ccco2)c2ccc(NC(C)=O)cc2)c1OC (stereo not given),-4,4,-0.2,-10,0.9%,0.2
c1cncc(CSc2nnc3ccc(-c4ccco4)nn23)c1,-1,3,-4.5,3,-0.8%,-0.2
CC(C)COc1ccc(C(=O)NCc2ccco2)cc1,-8,-4,-3.2,-3,0.0%,-0.8
Cc1c2ccccc2nc2c(F)c(N(C)C)c(F)c(F)c12,62,64,-0.8,9,-0.9%,27
COc1ccc(NC(=S)Nc2ccccc2)c(OC)c1,2,-10,1.0,-4,-0.4%,1.8
Cc1cccc(CSCCNC(=O)CN(c2cc(C)cc(C)c2)S(C)(=O)=O)c1,7,2,2.0,7,-0.9%,2.0
CC1CCc2c(sc(NC(=O)c3cc4nc(-c5ccc(Cl)cc5)cc(C(F)(F)F)n4n3)c2C#N)C1 (stereo not given),.,.,.,-25,0.2%,-0.7
CCOC(=O)C/C(C)=N/NC(=O)C1CC1(c1ccccc1)c1ccccc1 (stereo not given),-4,11,-1.1,2,4.3%,-0.3
CC(OC(=O)c1ccccc1NS(=O)(=O)c1cccc(C(F)(F)F)c1)C(=O)N(C)Cc1ccccc1 (stereo not given),4,8,4.4,-4,2.9%,0.1
CCOc1ccccc1CNC(=O)c1cnc2sc(N3CCCC3)nn2c1=O,.,.,.,6,0.1%,2.1
COc1ccc(C2C3=C(CC(C)(C)CC3=O)N(CC(=O)O)C3=C2C(=O)CC(C)(C)C3)cc1OC,2,8,-5.1,10,3.1%,-0.3
O=C(NCCOc1ccc(F)cc1)c1ccccc1SCc1ccccc1,7,-4,11,40,0.4%,5.2
COc1ccc(S(=O)(=O)N2CCN(c3ccc(C)cc3C)CC2)cc1OC,-3,-6,1.2,-5,0.3%,3.4
CCNc1nc(SCC(=O)Nc2ccc(Cl)c(Cl)c2)nc(N(C)C)n1,1,6,3.4,-3,9.7%,1.0
CCN(CCC(=O)Nc1cc(OC)cc(OC)c1)Cc1ccccc1,-1,-3,-2.3,46,-2.6%,4.9
CCOC(=O)CSc1nc(C(C)(C)C)cc(C(F)(F)F)c1C#N,31,47,0.0,11,-0.8%,13
COc1ccc(Nc2nc3ccccc3nc2-n2nc(C)cc2C)cc1,33,16,-4.7,11,?,-0.4
C=C1CCN([C@@H](CC(C)C)C(=O)NCc2ccc(Cl)cc2)S(=O)(=O)c2ccccc21,13,.,-3.5,-3,-0.3%,1.1
C(=C\c1ccccc1)/CN1CCN(C(c2cccc3ccccc23)c2nnnn2C2CCCC2)CC1 (stereo not given),-22,-19,-5.6,.,0.8%,0.3
COc1ccc(-c2ccccc2)cc1NC(=O)c1ccncc1,-6,3,4.0,-7,-0.6%,1.0
Cc1cc(=O)oc(C)c1C(=O)NCCC1=CCCCC1,1,10,-2.1,0,3.1%[38.3 µM],-0.6
O=C(O)c1ccc(Nc2ccc(F)c(F)c2)c([N+](=O)[O-])c1,-4,-9,-1.9,18,0.0%,-0.9
CCN(CC)S(=O)(=O)c1cccc(N=Nc2c(O)c3ccccc3oc2=O)c1,-1,-6,-7.1,-15,1.0%,-0.3
O=C(O)c1ccc(CSc2nnc(-c3ccccc3Br)o2)cc1,1,2,-3.9,-7,0.6%,0.0

# Pulled one by one from the entries so far (2):
SMILES,Six1-Eya2 blk,CtBP-E1A blk,D2 agonist,TRPML1 blocker,PINK1 modulator,TRPML1 ag
Cc1cccc(CSCCNC(=O)CN(c2cc(C)cc(C)c2)S(C)(=O)=O)c1,7,2,2.0,7,-0.9%,2.0
CC(C)COc1ccc(C(=O)NCc2ccco2)cc1,-8,-4,-3.2,-3,0.0%,-0.8

# Following part:
SMILES,Six1-Eya2 blk,CtBP-E1A blk,D2 agonist,TRPML1 blocker,PINK1 modulator,TRPML1 ag
O=C(Nc1ccccc1)c1nnsc1S(=O)(=O)c1ccc(Cl)cc1,4,8,-4.3,15,-1.1%,4.6
CCCNS(=O)(=O)c1ccc(OCC(=O)NCCCOC)cc1,-6,4,0.8,-15,4.0%,-0.5
O=C(OCC(=O)N1CCCCC1)c1ccc2ccccc2n1,-4,.,3.2,1,-0.2%,-0.7
CCc1ccccc1NC(=O)c1noc(C(C)C)c1[N+](=O)[O-],2,2,-2.5,-11,0.5%,-0.7
Cc1ccc(C2(C)NC(=O)N(CC(=O)Nc3c(C)n(C)n(-c4ccccc4)c3=O)C2=O)cc1 (stereo not given),0,5,-1.0,26,0.4%,5.1
Cc1cc(-c2nnc(SCC(=O)NC3CCCC3)o2)no1,3,9,-0.1,26,1.9%[38.3 µM],-0.2
CC1=C(C#N)C(c2ccc3ncccc3c2)C(C#N)=C(C)N1,0,17,-1.5,-9,-5.8%[38.3 µM],-0.2
COc1ccc(/C=C2/CCCc3ccccc3C2=O)cc1,10,-16,2.6,-19,1.9%,4.9
CSCCC(NS(=O)(=O)c1cccc(C(F)(F)F)c1)C(=O)N1CCN(C(=O)c2ccco2)CC1 (stereo not given),1,-8,-2.0,-11,1.7%,1.2
CCOC(=O)Cn1c(=O)n(C2CCCCC2)c2nc(-c3c(F)cccc3Cl)nc(C(N)=O)c21,.,.,.,-13,2.1%,1.2
COc1cccc(NC(=O)CN(C)C(=O)CCCNC(=O)c2ccc(Cl)cc2)c1,7,4,-4.5,0,-1.5%,0.3
COc1ccc(NC(=S)N(CCCN2CCCC(C)C2)Cc2cccs2)cc1 (stereo not given),-3,-2,-2.6,-10,-0.9%,0.4
CCn1ccnc1CN1CCCCC1C(=O)Nc1ccc(Oc2cccnc2)cc1 (stereo not given),-6,-16,-3.6,13,3.2%,0.0
O=C(NNC(=S)NC(=O)c1cn(-c2ccccc2)nc1-c1ccccc1)c1ccncc1,?,-1,-10,-24,1.9%,1.0
CN1CCN(c2ccccc2NC(=O)c2ccc(-c3ccc(Cl)c(Cl)c3)o2)CC1,20,0,-2.3,21,0.6%,3.7
N=C1S/C(=C\c2ccco2)C(=O)N1c1ccc2c(c1)OCO2,6,-15,0.3,-9,-2.8%,1.4
C=CCn1c(SCC(=O)c2ccc(OC)cc2)nnc1-c1ccc2c(c1)OCO2,2,-2,0.7,19,-0.9%,4.8
CCN(CC)S(=O)(=O)c1ccc(S(=O)(=O)N(Cc2ccccn2)Cc2ccco2)cc1,-4,-2,0.5,22,-1.5%[38.3 µM],1.5
CCOC(=O)c1c(NC(NC(C)=O)C(Cl)(Cl)Cl)sc2c1CCCC2 (stereo not given),-17,-5,1.8,-7,24%,1.8
O=C1CSc2ccc(C(=O)NCC(c3ccco3)N3CCCCC3)cc2N1 (stereo not given),-1,10,-5.5,-6,0.1%,0.0
CC(=O)c1cccc(-c2ccnc3c2CC(C(=O)NCC2CCOCC2)O3)c1 (stereo not given),7,2,-2.6,.,7.0%,-0.6
N#Cc1nc(-c2cccs2)oc1NCCc1ccccc1,-23,-11,-4.1,-6,7.4%,0.0
Cn1nc(C(F)(F)F)c(CO)c1Sc1ccc(F)cc1,2,1,2.1,-4,-0.8%,1.3
Cc1cccc(OCCC(=O)NNC(=O)c2ccoc2C)c1,1,.,-3.0,-7,0.1%,-0.1
Cc1cccc(C)c1-n1nnnc1C(c1ccnc2ccccc12)N1CCCC1 (stereo not given),8,-10,.,.,0.4%,-0.4

# Remaining list, next part
SMILES,Six1-Eya2 blk,CtBP-E1A blk,D2 agonist,TRPML1 blocker,PINK1 modulator,TRPML1 ag
O=[N+]([O-])/C(C(Cl)=C(Cl)Cl)=C(/Sc1ccccc1)N1CCCCC1,10,15,1.1,-1,2.3%,0.2
Clc1ccc(SCc2cn3ccccc3n2)cc1,-1,6,-1.3,-7,1.9%,2.0
CC(=O)[C@H]1[C@H]([C@H](O)[C@H](O)CO)O[C@](O)(C(=O)O)C[C@@H]1O,-1,0,-3.3,.,1.6%,.
N#Cc1ccc(-c2csc(NC(=O)c3cc(-c4cccs4)nc4ccccc34)n2)cc1,2,-3,1.8,2,0.5%,0.4
Cc1ccnc2nc(C(=O)OCCOc3ccccc3)nn12,1,-1,-2.2,-8,0.2%,0.6
Cc1cccc(N(CC(=O)NCc2ccccc2)S(C)(=O)=O)c1C,.,.,.,-2,0.2%,0.3
CC1C(=O)N(Cc2cn(CC3CCCCC3)nn2)CCS(=O)(=O)N1Cc1ccc(-c2ccc(Cl)cc2)cc1 (stereo not given),-3,-9,-0.8,.,1.1%,.
Cn1c2ccccc2c2cc(/C=N/NC(=O)c3cc(O)cc(O)c3)ccc21,?,?,-1.1,15,-0.8%,1.4
O=C(CN1CCCCC1)N/N=C/c1cccc(Cl)c1,2,6,2.6,-18,1.5%,0.1
CCOC(=O)c1sc(C)c2c1NC(C)(c1cccs1)NC2=O (stereo not given),-1,-17,-2.2,23,-2.8%[38.3 µM],2.2
CCOCc1c(C(=O)N2CCN(CCOc3ccc(Cl)cc3)CC2)oc2ccccc12,-8,-4,4.0,-13,-0.8%,4.9
O=C(N/N=C/c1cccc(OCC(=O)N2CCCC2)c1)C(=O)Nc1ccccc1F,0,-1,-1.3,-4,0.0%,-0.9
CC(C)CCNC(=O)C1CCN(C(=O)N(C)C)CC1,0,8,-2.8,1,3.0%[38.3 µM],-0.6
O=C(C1CC(=O)N(c2ccccc2)C1)N1CCN(c2ccccc2)CC1 (stereo not given),1,0,0.3,14,1.1%,0.2
O=C(N/N=C/c1ccccn1)c1cccc(NC(=O)c2ccc(Cl)cc2)c1,?,.,4.5,17,-0.4%,0.8
O=C1C(=O)c2ccc(-c3ccccc3)cc2-c2ccccc21,?,?,12,-9,-2.9%,7.7
COc1ccc(-c2cc(CN3C(=O)c4ccccc4C3=O)on2)cc1,5,4,2.4,17,-5.2%[38.3 µM],1.8
Fc1cccc(Cl)c1CSc1nnc(CNc2ccccc2)o1,3,-2,-1.8,35,0.0%,2.1
CN(C)c1ccc(C2=NOC(CN3C(=O)c4ccccc4S3(=O)=O)C2)cc1 (stereo not given),0,-3,2.4,10,-0.8%,0.6
Cc1ccc(S(=O)(=O)N2CCCC(C(=O)NCC(C)C)C2)cc1 (stereo not given),3,-1,-3.0,16,2.0%,-0.1
O=C(Nc1c(C(=O)N2CCN(c3ccccc3F)CC2)oc2ccccc12)c1ccco1,.,.,.,-7,-0.4%,-0.5
CCN1CCCC1CNC(=O)C(=O)NC (stereo not given),8,10,-2.6,-7,3.4%,0.1
COCCCNC(=S)N/N=C/c1ccccc1O,-90*,.,-6.6,0,-0.9%,-0.2

# Record cards, from the list above. Order of screens: Six1-Eya2 blk, CtBP-E1A blk, D2 agonist, TRPML1 blocker, PINK1 modulator, TRPML1 ag
# Cc1cccc(N(CC(=O)NCc2ccccc2)S(C)(=O)=O)c1C reads ., ., ., -2, 0.2%, 0.3
# CC(=O)[C@H]1[C@H]([C@H](O)[C@H](O)CO)O[C@](O)(C(=O)O)C[C@@H]1O reads -1, 0, -3.3, ., 1.6%, .
# Fc1cccc(Cl)c1CSc1nnc(CNc2ccccc2)o1 reads 3, -2, -1.8, 35, 0.0%, 2.1
